Assay outcomes (PubChem BioAssay)
Kir21 block = inhibitors of mouse Kir2.1 inward-rectifier potassium channel; B-score at 10 µM; P35561; 0.85% of 310,000 active; HEK293-Kir2.1, FluxOR thallium flux fluorescence; hits give low values;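 active = fluorescence ratio B-score at or below minus 3 SD of library scores, with starting-brightness B-score within 2 SD, cut at about -4.2 in these data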;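 also: channel flux triggered by added potassium and thallium sulfate stimulus; B-score of peak minus minimum fluorescence over baseline after thallium stimulus; more negative B-score means stronger Kir2.1 block with less thallium influx; some compounds called inactive have numbers as strong as hits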
Target sequence (P35561 whole entry, looked up): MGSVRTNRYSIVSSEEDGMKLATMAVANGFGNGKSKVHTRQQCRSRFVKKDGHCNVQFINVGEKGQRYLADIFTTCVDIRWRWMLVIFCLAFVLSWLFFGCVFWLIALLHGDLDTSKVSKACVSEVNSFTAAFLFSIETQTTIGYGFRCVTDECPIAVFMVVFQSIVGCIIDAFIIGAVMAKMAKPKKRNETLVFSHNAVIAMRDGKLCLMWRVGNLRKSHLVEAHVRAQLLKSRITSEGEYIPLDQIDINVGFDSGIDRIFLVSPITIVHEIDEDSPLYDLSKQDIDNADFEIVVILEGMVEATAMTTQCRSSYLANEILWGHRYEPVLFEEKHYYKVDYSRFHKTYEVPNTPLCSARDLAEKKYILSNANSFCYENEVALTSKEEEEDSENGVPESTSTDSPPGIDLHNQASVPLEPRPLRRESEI
The depositor's hits bear a star. Some of the compounds tested, and most or all hits are left out here.

mol | Kir21 block
CCc1ccc2[nH]c(=O)c(CN(CCN(C)C)C(=O)Nc3ccccc3)cc2c1 | -0.98
CCCOc1c(Cl)cc(/C=N/O)cc1OCC | -4.5
CCS(=O)(=O)N1CCC(C(=O)NCCCN2CCCC2)CC1 | 2.2
CC1=CC(C)(C)N2C(=O)C3(C(C#N)=C(N)Oc4cc(C)oc(=O)c43)c3cccc1c32 (stereo not drawn) | 0.12
Cc1ccc(-c2csc(N3CCC[C@@H]3C(=O)NCCn3c(C(F)(F)F)nc4ccccc43)n2)cc1 | 0.38
Cc1ccnc(NC(=O)C2CCN(S(=O)(=O)c3ccc4c(c3)CC(C)N4C(=O)C3CCC3)CC2)c1 (stereo not drawn) | -0.25
COc1ccc(C2CC(c3ccccc3)=NN2C(=O)COC(=O)c2cc(S(=O)(=O)N3CCOCC3)ccc2Cl)cc1 (stereo not drawn) | 0.64
CN(CCc1ccccn1)C(=S)Nc1ccc(Cl)cc1Cl | -0.93
O=C(CSc1ccccn1)c1ccc(F)cc1 | 1.5
c1ccc(CCn2nnnc2C(c2cccnc2)N2CCN(c3ccccc3)CC2)cc1 (stereo not drawn) | 1.1
COc1cc(C(=O)Nc2ccc3c(c2)CCN3C(C)=O)cc(OC)c1OC | 3.5
Cc1nc2ccc(F)cc2cc1C(=O)Nc1cccc(Cl)c1C | -0.02
CC1CCCCC1NC(=O)CCNS(=O)(=O)c1cc(Br)cnc1N (stereo not drawn) | -0.53
O=C1OCC/C1=C\c1ccc(O)cc1 | -0.03
CCOc1ccc2nc(N3CCC(C(=O)NCCCN4CCOCC4)CC3)sc2c1 | -0.59
O=C(COc1ccccc1[N+](=O)[O-])Nc1cccc(Cl)c1N1CCOCC1 | -1.5
COc1ccc(Cn2nnnc2CN2CCC(O)(c3ccccc3F)CC2)cc1 | 0.37
COc1ccc(S(=O)(=O)N(C)c2ccc(C(=O)NCc3ccncc3)cc2)cc1 | -1.1
CCOc1ccccc1CNC(=O)C1CCN(C(=O)N2CC(C)Oc3ccc(C)cc32)CC1 (stereo not drawn) | 0.55
O=c1c2c3c(sc2nc2n1CCCCC2)C(O)CCC3 (stereo not drawn) | 0.43
CCSC1=C(C#N)C(c2cccc(O)c2)CC(=O)N1 (stereo not drawn) | -0.45
COc1cc(C(=O)NCC(=O)OCCN2C(=O)c3ccccc3C2=O)cc(OC)c1OC | -2
CC(C)C(=O)OCC(=O)Nc1ccc(N=Nc2ccccc2)cc1 | -0.01
CC(=O)c1sc(NC(=O)C2=NN(c3ccccc3)C(=O)CC2)nc1C | -0.02
COc1ccc(F)cc1CN1CCN(C(=O)CCC(=O)Nc2nnc(CC(C)C)s2)CC1 | 0.83

Reformatted with each value named: entries from further up
molecule: CC1CCCCC1NC(=O)CCNS(=O)(=O)c1cc(Br)cnc1N (stereo not drawn)
  Kir21 block: -0.53
molecule: COc1ccc(S(=O)(=O)N(C)c2ccc(C(=O)NCc3ccncc3)cc2)cc1
  Kir21 block: -1.1

New compounds follow:
mol | Kir21 block
COc1cccc(CN(C(=O)CN2C(=O)c3ccccc3S2(=O)=O)C(C(=O)NCC2CCCO2)c2ccco2)c1 (stereo not drawn) | 2.3
Cc1cccc(NC2SC(=O)N(CC(=O)O)C2=O)c1 (stereo not drawn) | -1.4
COc1ccc(-c2cc(=O)c3ccccc3n2C)cc1 | -0.1
COc1ccc(C)cc1NC(=O)Cn1cnc2sc(C)c(S(=O)(=O)N3CCOCC3)c2c1=O | 0.42
COC(=O)CSc1nnc(-c2cccs2)n1-c1ccc(Cl)cc1 | -1.2
COc1ccc(NS(=O)(=O)c2cc(C(=O)N3CCN(C(C)=O)CC3)ccc2Cl)cc1 | 1.3
[O-]/C(=C(\C(=S)Nc1ccc(Cl)cc1)[n+]1ccccc1)c1ccc(OC(F)F)cc1 | -0.17
CCC(C(=O)Nc1cc(C(=O)Nc2cc(C)ccn2)ccc1Cl)c1ccccc1 (stereo not drawn) | -0.19
O=C(NC(Cc1ccccc1)C(=O)O)C1CCCCC1 (stereo not drawn) | 0.05
Cc1cc(NC(=O)CSc2ccc(-c3nc4cc(C)c(C)cc4[nH]3)cn2)no1 | 0.76
CN(C)CC(O)CN1C(=O)N(CN2C(=O)N(CC(O)CN(C)C)C(=O)C2(C)C)C(C)(C)C1=O (stereo not drawn) | -0.04
O=C(Cc1noc2ccccc12)Nc1ccc2ccccc2c1 | 0.62
C=CCN(C(=O)CNC(=O)c1ccco1)C(C(=O)NC1CCCCC1)c1cccnc1 (stereo not drawn) | -0.01
COc1ccc2[nH]c(=O)c(CN(CCCN3CCOCC3)C(=O)NCc3ccccc3)cc2c1 | -0.52
CSc1ncc(Cl)c(C(=O)NCc2cccnc2)n1 | 0.49
CCOC(=O)CN1C(=O)S/C(=C/c2ccc3c(c2)n(C)c(=O)n3C)C1=O | -2
COc1ccc2cc(C(=O)C3CCCN(C(=O)c4snnc4C)C3)ccc2c1 (stereo not drawn) | 0.81
CC(C)[C@H](NC(=O)Nc1ccc2c(c1)OCCO2)C(=O)O | 0.92
Cc1c(NC(=O)c2nn(C)c(=O)c3ccccc23)c(=O)n(-c2ccccc2)n1C | 2
COc1ccc([N+](=O)[O-])cc1NC(C)C | -1.9
CCSc1nc2[nH]ncc2c(=O)[nH]1 | 0.7
CCCc1nc(SCC(=O)Nc2nc3c(s2)CCCC3)c2ccccc2n1 | 0.19
O=C(Cn1c(=O)c2cccn2c2ccccc21)NCc1cccc(F)c1 | 1.2
CCOc1cc(C(=O)NCc2ccc(-c3nc4ccccc4o3)cc2)cc(OCC)c1OCC | -0.45
O=C(NCCN1C(=O)S/C(=C\c2cccnc2)C1=O)c1ccc([N+](=O)[O-])s1 | 0.5
CC(=O)Nc1ccc(Sc2ccccc2C(=O)O)c(C(=O)O)c1 | 0.41
O=C(NC(=S)Nc1sc2c(c1C(=O)O)CCCC2)c1ccccc1 | 2.3
CCc1ncc(C(O)c2cccc(OC)c2OC)n1C (stereo not drawn) | -0.23
COc1ccccc1C1CCN(Cc2cccc(C(=O)N3CCC(O)CC3)c2)CC1 | -1.6
c1ccc(-c2ccccc2-c2nc(-c3cccnc3)no2)cc1 | 0.65
CCOc1ccccc1Nc1nnc(SCC(=O)NC(=O)c2cccn2C)s1 | 0.63
CN1CCN(CCC(=O)N/N=C/c2ccccn2)CC1 | -0.88
COc1ccc(CCNC(=O)Nc2ccc([N+](=O)[O-])cc2)cc1OC | 0.4
CCCNC(=O)CS(=O)(=O)Cc1nc(-c2ccccc2C)oc1C | -0.75
COc1cc(C(C(=O)NC2CCCC2)N(C(=O)c2ccco2)c2ccccc2C(C)=O)cc(OC)c1OC (stereo not drawn) | 0.33
Cc1ccc(OCC(=O)Nc2ccc3c(c2)nc(CCN2CCN(C)CC2)n3C)cc1 | 0.82
COc1cc(CN2CC(C)OC(C)C2)cc(OC)c1 (stereo not drawn) | -1.3
Cc1ccc(C(=O)NCCN2CCNC2=O)cc1 | 0.76
O=C(CSc1nnc(-c2ccccn2)n1Cc1ccco1)Nc1ccc2c(c1)OCO2 | -0.01
CC(C)c1nnc(NC(=O)C2CCN(c3nc4ccccc4s3)CC2)s1 | 0.92
COc1cc(OC)cc(C(=O)NC(=S)Nc2cccnc2)c1 | 0.71
C[C@H](NC(=O)Cc1cccc2ccccc12)C(=O)N1CCCN(C)CC1 | -1.3
COc1ccccc1N1CCN(C(=O)CSc2ncnc3scc(-c4ccccc4)c23)CC1 | -0.52
CC(=O)NC(c1cccc([N+](=O)[O-])c1)c1ccc2cccnc2c1O (stereo not drawn) | 1.1
CCCOc1ccc(C2C(C(=O)c3cc4ccccc4o3)=C(O)C(=O)N2c2cc(C)on2)cc1OC (stereo not drawn) | -0.54
Cc1c(NC(=O)c2cc(-n3cnnc3)ccc2Cl)cccc1-c1nc2ccccc2s1 | -0.01
CN(Cc1ccco1)S(=O)(=O)c1nnc(NC(=O)c2ccccc2Cl)s1 | 0.13
COc1ccc(CN2C(=O)NC3(CCOc4ccccc43)C2=O)cc1F (stereo not drawn) | -1.1
Cc1ccc(S(=O)(=O)N2CCN(Cc3cccc(C)c3O)CC2)cc1 | 0.46
COc1cc(C(=O)NC2CCN(Cc3nnnn3Cc3ccc(F)cc3)CC2)cc(OC)c1OC | 0.26

(list continues)
mol | Kir21 block
C=CCNC(=S)/N=c1/scc(C)n1C | -0.17
O=C(O)C(Cc1c[nH]c2ccccc12)NS(=O)(=O)c1ccc2ccccc2c1 (stereo not drawn) | 0.75
Cc1ccc(S(=O)(=O)Nc2c(C)n(C)n(-c3ccccc3)c2=O)cc1C(=O)OC(C)C(=O)N(C)c1ccccc1 (stereo not drawn) | -0.01
CCOc1cc(-c2noc(CCCC(=O)NC3CCCCC3)n2)ccc1OC | 0.65
CCOC(=O)N1CCC(=C(C#N)C(=O)Nc2cc(OC)ccc2OC)CC1 | -0.11
Cn1cc(S(=O)(=O)N2CCOCC2)cc1C(=O)Nc1cccc(Cl)c1 | -0.91
COc1ccc(-n2c(C)cc(C(=O)CN3CCCCC3)c2C)cc1 | 0.66
CC(C)(CO)NC(=O)CC1C(=O)NCCN1Cc1ccc(-c2ccccc2)cc1 (stereo not drawn) | 2.4
COc1cccc(Cn2cc(-c3cccc(C(F)(F)F)c3)nn2)c1 | -0.74
CN(Cc1ccco1)S(=O)(=O)c1ccc2c(c1)CCN2C(=O)CCC(=O)O | 2
COc1ccccc1NC(=O)CSc1nc(O)c(Cc2ccccc2)c(=O)[nH]1 | -0.25
Cc1c(O)ccc2c(=O)c(-c3nncn3-c3ccccc3)coc12 | 0.62
COc1ccc(-c2noc(CCC(=O)O)n2)cc1 | 0.05
CC(C)c1ccc2nc(NC(=O)C3CC3)sc2c1 | 0.15
CC(C)=NOCC(=O)Nn1c(COc2ccccc2)nc2ccccc2c1=O | 0.01
COc1ccc(C2Cc3ccccc3C(=O)O2)cc1 (stereo not drawn) | 1.9
COc1ccc(CCNC(=O)C(=O)NN=C2CCCCCCC2)cc1OC | 0.62
CC(=O)NC1=NN(C(C)=O)C(c2ccc(C(C)C)cc2)S1 (stereo not drawn) | 0.8
CCOC(=O)C(c1ccccc1)C(Nc1cc(C(F)(F)F)cc(C(F)(F)F)c1)c1ccccn1 (stereo not drawn) | 1.6
Cn1c(=O)c(=O)n(C)c2cc(S(=O)(=O)N3CCCC3C(=O)NCc3cccs3)ccc21 (stereo not drawn) | -2.8
O=C(Nc1nnc(C2CC2)s1)C1=NN(C2CCS(=O)(=O)C2)C(=O)CC1 (stereo not drawn) | 0.31
COc1ccccc1N1CCN(C(=O)CC2NC3CCCCC3NC2=O)CC1 (stereo not drawn) | -0.45
Cc1ccc2c(Cl)cc(Cl)c(OCC(=O)Nc3cccc(S(=O)(=O)N(C)C)c3)c2n1 | 0.19
O=C(c1ccc(F)cc1F)N1CCCC(c2nc(-c3ccc(F)cc3)no2)C1 (stereo not drawn) | 0
CC1CCCCN1CCn1c(=S)[nH]c2cc3c(cc2c1=O)OCO3 (stereo not drawn) | -2.9
NS(=O)(=O)c1ccc(O)c(N2C(=O)c3cccc4c(C(=O)O)ccc(c34)C2=O)c1 | -1.5
Cc1ccc(S(=O)(=O)N(CC2CO2)c2cc(Cl)ccc2Cl)cc1 (stereo not drawn) | 1.2
CC(Sc1nc(N)cc(=O)[nH]1)C(=O)Nc1nc2c(s1)CCCC2 (stereo not drawn) | -0.83
O=C1CCCc2c1nc(-c1ccccc1)n2O | 0.18
O=c1oc2ccccc2n1CCn1c2ccccc2c2nc3ccccc3nc21 | 0.06
O=C(Nc1ccc(Nc2ccccc2)cc1)c1ccco1 | -0.02
Cc1nc(SCC(=O)CC(=O)OC(C)C)c(C#N)c(C)c1C | 1.6
O=C(Nc1cc(C(F)(F)F)ccc1N1CCOCC1)c1ccco1 | -0.04
O=C(NNc1ccccc1[N+](=O)[O-])Nc1ccc(F)cc1F | 0.16
O=C(Nc1cccc(C(=O)O)c1)/C(=C\c1ccc2c(c1)OCO2)NC(=O)c1ccco1 | 1.4
Nc1ccc(S(=O)C(F)(F)F)cc1 (stereo not drawn) | 1.1
COc1ccc(C2/C(=C(/O)c3ccccc3)C(=O)C(=O)N2C)cc1 (stereo not drawn) | 1.4
COc1ccc(C2NC(C(=O)O)Cc3c2[nH]c2ccccc32)cc1OC (stereo not drawn) | 0.31
Cc1cc(C)cc(NC(=O)c2ccc(CSc3nnnn3C)cc2)c1 | 1.3
CCS(=O)(=O)Nc1cccc(C2=NN(S(C)(=O)=O)C(c3cccs3)C2)c1 (stereo not drawn) | 0.5
Cc1nn2c(c1-c1ccccc1)N=C(c1ccco1)CC2c1ccccc1 (stereo not drawn) | -1.1
CCOC(=O)C(=NC1CCCCC1)NNc1cccc(C(F)(F)F)c1 | -1.1
COc1cccc(-n2nnnc2SCC(=O)Nc2nc3c(s2)CCCC3)c1 | 0.32
CCC1=NN(C(=O)Cc2ccc([N+](=O)[O-])cc2)C(O)(C(C)(C)C)C1 (stereo not drawn) | 0.93
Cc1cc(C)nc(/N=C(\N)N2CCCCCC2)n1 | 1.7
COc1ccc(C(=O)Nc2ccc(S(=O)(=O)Nc3cc(C)nc(C)n3)cc2)c(OC)c1 | 1.2

Molecules listed so far containing a CF3 group (six):
mol | Kir21 block
Cc1ccc(-c2csc(N3CCC[C@@H]3C(=O)NCCn3c(C(F)(F)F)nc4ccccc43)n2)cc1 | 0.38
COc1cccc(Cn2cc(-c3cccc(C(F)(F)F)c3)nn2)c1 | -0.74
CCOC(=O)C(c1ccccc1)C(Nc1cc(C(F)(F)F)cc(C(F)(F)F)c1)c1ccccn1 (stereo not drawn) | 1.6
O=C(Nc1cc(C(F)(F)F)ccc1N1CCOCC1)c1ccco1 | -0.04
Nc1ccc(S(=O)C(F)(F)F)cc1 (stereo not drawn) | 1.1
CCOC(=O)C(=NC1CCCCC1)NNc1cccc(C(F)(F)F)c1 | -1.1
